Env fusion inh: inhibitors of HIV Env-mediated cell fusion. HeLa-JRFL Env/CEM21 cell fusion, luciferase. inhibition, % at 12.3 µM. actives 1.1% (n = 360,000). AID 651610;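 active = mean replicate inhibition score of at least 50 and every replicate individually at or above 50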;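 note: 0% = plate neutral controls and 100% = maraviroc near 300 nM; one replicate is shown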
Rce1 inh: blocks yeast Ras-converting enzyme | Q03530 | yeast membranes, quenched prenylated peptide cleavage fluorescence | calls only | actives 0.27% (n = 290,000);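 active = fall in fluorescence gain of 50% or more versus controls, with final raw signal at or below 3038400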;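 note: plate controls were neutral control wells for no effect and wells lacking membranes for full effect; tested at 10 µM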
Target sequence (Q03530 whole entry, looked up): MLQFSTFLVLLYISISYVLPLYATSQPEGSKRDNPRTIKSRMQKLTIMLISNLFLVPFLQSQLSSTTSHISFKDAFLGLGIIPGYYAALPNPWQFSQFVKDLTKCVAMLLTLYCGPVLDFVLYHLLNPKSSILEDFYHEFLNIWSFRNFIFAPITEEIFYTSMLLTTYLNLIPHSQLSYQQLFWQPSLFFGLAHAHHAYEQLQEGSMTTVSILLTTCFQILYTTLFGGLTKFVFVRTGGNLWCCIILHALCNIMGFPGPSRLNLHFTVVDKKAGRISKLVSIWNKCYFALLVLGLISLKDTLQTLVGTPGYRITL
Yeast UUG start: alters start codon recognition fidelity in yeast. AID 602363. S. cerevisiae UUG-firefly luciferase reporter, luminescence/redox ratio. actives 0.13% (n = 350,000). activity score, % at 18.7 µM;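 active = replicate mean at a twofold rise or more, about +100% in these data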;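 note: firefly luciferase made from a UUG start codon reports start codon fidelity; reporter light over untreated wells divided by growth signal over untreated wells; some hits fall short of that in this replicate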
eIF4H inh: inhibitors of RNA binding by human eIF4H. Q15056. eIF4H fluorescence polarization binding assay. inhibition, % at 35 µM. actives 0.94% (n = 290,000);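 active = 50% or more with normal probe brightness, or confirmed in later tests; about a fifth of its hits are not listed in these tables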;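 note: calls also rest on retests at 20 µM and on dose response follow-up; 0% = protein and probe with vehicle and 100% = probe without protein; strong numbers were not always called active; many hits fall short of the cut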
CSC inhib: cancer stem cell inhibition. cancer stem cell-like cells viability, luminescence. inhibition, % at 7.5 µM. actives 1.1% (n = 300,000);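 active = mean at 75% or more and at least half the replicates too; tested in HMLE shEcad cells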;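 note: 0% = median of negative and 100% = median of positive control wells; the first replicate is given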
MT1-MMP act inh: inhibitors of human MT1-MMP activation; HT1080 RFP-PRO-GFP cells, GFP/RFP ratio fluorescence, overnight; percent of plate control window, DMSO zero; GFP/RFP ratio change, % at 20 µM; actives 0.061% (n = 360,000);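 active = GFP/RFP ratio change of at least 30% with cell ATP level not reduced by more than half and red fluorescence within 50% of control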; note: strong numbers were not always called active
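Assay system: RFP-PRO-GFP reporter HT1080 cells; read-out basis: GFP/RFP fluorescence ratio; benchmarks: DMSO wells and RFP-L50D-GFP cells; doses: 20 µM single dose, 1% DMSO; schedule: overnight cell settling, then overnight compound exposure, 37 °C, 5% CO2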
PABP FP inh: PABP-poly(A) binding inhibition | actives 1% (n = 290,000) | PABP-poly(A) RNA binding, fluorescence polarization | P11940 | inhibition, % at 35 µM;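 active = 50% or more with normal probe brightness, or confirmed in later tests; about a fifth of its hits are not listed in these tables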;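 note: calls also rest on retests at 20 µM and on dose response follow-up; controls were probe without protein and protein plus probe with vehicle; some compounds called inactive have numbers as strong as hits; many hits fall short of the cut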
Target sequence (P11940 whole entry, looked up): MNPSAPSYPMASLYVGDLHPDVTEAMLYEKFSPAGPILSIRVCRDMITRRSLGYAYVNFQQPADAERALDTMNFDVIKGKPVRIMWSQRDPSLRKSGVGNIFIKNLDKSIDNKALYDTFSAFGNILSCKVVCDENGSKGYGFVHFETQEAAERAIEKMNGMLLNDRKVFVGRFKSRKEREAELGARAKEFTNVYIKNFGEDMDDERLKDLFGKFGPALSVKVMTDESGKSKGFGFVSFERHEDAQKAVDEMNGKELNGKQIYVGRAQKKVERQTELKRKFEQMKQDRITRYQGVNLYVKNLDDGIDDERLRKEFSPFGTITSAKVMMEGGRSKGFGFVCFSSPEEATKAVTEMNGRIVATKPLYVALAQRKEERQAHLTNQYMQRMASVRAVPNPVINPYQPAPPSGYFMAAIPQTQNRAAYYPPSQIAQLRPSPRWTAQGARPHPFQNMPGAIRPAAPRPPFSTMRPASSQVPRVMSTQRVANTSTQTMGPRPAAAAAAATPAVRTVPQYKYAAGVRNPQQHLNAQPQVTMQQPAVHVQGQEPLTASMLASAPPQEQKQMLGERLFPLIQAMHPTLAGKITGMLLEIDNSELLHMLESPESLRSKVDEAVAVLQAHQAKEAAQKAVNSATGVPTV
eIF4H inh retest: also measured in eIF4H inh; calls as there; inhibition, %; compound at 20 µM; confirmation average;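 mean of two retest wells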
PABP FP inh retest: also measured in PABP FP inh; calls as there; inhibition, %; compound at 20 µM; confirmation repeats;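 mean of two retest wells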
MT1-MMP act inh RFP: second read-out of MT1-MMP act inh, no call of its own (marks repeat the call); RFP signal change, %; measured here: RFP expression control read;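 0 = vehicle wells; hits needed this value within 50% of zero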
* = called active by the depositor; i = inactive; / = not tested or not shown; & = joins results of further samples.

SMILES	Env fusion inh	Rce1 inh	Yeast UUG start	eIF4H inh	CSC inhib	MT1-MMP act inh	MT1-MMP act inh RFP	PABP FP inh	others
C=CCc1ccccc1OCC(O)CNC (stereo unspecified)	-55	i	4	1	2	8	7	0
CCOC(=O)C1=C(C)NC(=O)NC1c1c(OCC(=O)N2CCCCC2)ccc2ccccc12 (stereo unspecified)	/	i	-13	-6	-5	4	0	5
CCOC(=O)N1CCN(C(=O)CCC(=O)N2CCOc3ccc(C)cc32)CC1	/	i	4	-3	6	1	0	7
CS(=O)(=O)N(CC(=O)NCc1ccco1)c1cccc([N+](=O)[O-])c1	-5	i	17	0	-17	-1	3	0
CC1(C(=O)NS(=O)(=O)c2ccc(Cl)s2)CCN1C(=O)C1(c2ccc(Cl)cc2)CC1 (stereo unspecified)	-3	/	22	/	/	-1	1	/
CCOc1ccc(N(C(=O)c2snc(C(N)=O)c2N)C(C(=O)NCC2CCCO2)c2ccc(C)o2)cc1 (stereo unspecified)	5	i	2	-4	/	-2	0	5
CCOc1ccc2nc(NC(=O)c3ccco3)sc2c1	-120	i	-50	1	65	2	-3	4
COc1ccc(-c2cc(C(=O)NCC3CCCO3)c3cc(C(C)C)ccc3n2)cc1 (stereo unspecified)	16	i	-13	/	-7	-2	-1	/
N#CCCN1CCC(NC(=O)OCc2ccccc2)CCC1=O (stereo unspecified)	-56	i	-23	13	9	3	3	-3
CC(C)NC(=O)[C@@H]1C[C@@]1(C)[C@@H](NC(=O)OCc1ccccc1)c1ccccc1	-112	i	-14	-6	7	3	3	-6
COCCN1C=C(C(=O)OC)C(c2cc3c(cc2Br)OCO3)C(C(=O)OC)=C1	/	i	/	7	11	/	/	0
Cc1ccc(NC(=S)N=Nc2c(O)n(C)c3ccc(S(=O)(=O)N4CCOCC4)cc23)cc1	43	i	/	0	/	19	-4	-3
COc1ccc(-c2c(C(=O)O)c(-c3ccccc3)cn2C)cc1	-15	i	-11	/	1	0	0	/
Cc1cc(C)c(NC(=O)c2ccc3c(c2)CCN3S(C)(=O)=O)c(C)c1	9	i	-21	-6	-4	0	-2	-7
COc1ccc(/C=N/NC(=O)CNC(=O)/C=C/c2ccco2)cc1OC	-3	i	-10	9	-3	2	5	7
CC(=O)N(CCCN(C)C)Cc1ccccn1	-5	i	/	3	-9	1	1	-8
COc1ccc(-c2cc3cc(OC)c(OC)cc3cn2)cc1	-11	/	-8	/	/	9	-1	/
Cc1ccc(S(=O)(=O)N(C)Cc2ccc(-c3nnco3)cc2)cc1	/	i	-3	-7	0	-3	0	4
CCCCCC(=O)N1C[C@@H](n2cc(-c3ccc(F)cc3)nn2)[C@H](O)C[C@@H]1c1ccccc1	-26	/	6	/	/	5	0	/
CC[C@@]12C(=O)N(c3cccc(C)c3)C(=O)N1[C@H](c1ccc(Br)cc1)[C@@H]1C(=O)N(C(C)(C)C)C(=O)[C@@H]12	54	i	-6	-12	8	-6	-11	-15
Cc1cc(Br)cc(/C=N/NC(=O)c2ccc3c(c2)OCO3)c1O	4	i	-4	0	84*	-4	-11	0
Cn1c(=O)c2c(nc(SCC(=O)NCC3CCCO3)n2Cc2ccc(F)cc2)n(C)c1=O (stereo unspecified)	18	i	-12	-4	-13	-5	2	1
COCCNC(=O)C1(C)CCCN(C(=O)c2cccc(OC(F)(F)F)c2)C1 (stereo unspecified)	4	/	-7	/	/	2	2	/
CCc1ccc(/C=C2\SC(N3CCCC3)=NC2=O)cc1	16	i	/	-9	15	0	-8	-5
O=C(O)CN1C(=O)/C(=C\c2ccccc2OCc2ccc(Cl)cc2)SC1=S	3	i	/	4	10	1	1	24
O=C(NCc1ccccn1)Nc1cccc([N+](=O)[O-])c1	-10	i	-20	-7	-15	2	2	-8
O=C(O)CCCNS(=O)(=O)Cc1ccccc1	2	i	0	19	-8	2	7	-10
COc1ccc(N(C(=O)CNC(=O)c2cccs2)C(C(=O)NC2CCCC2)c2cccnc2)cc1 (stereo unspecified)	-66	i	-13	-3	-10	-2	1	-8
O=C(COC(=O)c1cccc(O)c1)NCc1ccc2c(c1)OCO2	-8	i	-9	4	-1	-4	-3	-3
CC(CN1CCOCC1)OC(=O)COc1ccc(F)cc1 (stereo unspecified)	-87	i	-5	-9	6	11	5	2
CCn1c(CSCc2ccc(F)cc2)nnc1SCC(=O)N1CCN(c2ccccc2)CC1	/	i	-15	-2	-14	-6	-18	-3
N#C/C(C(=O)NCc1ccccc1)=C1\SC(CCO)C(=O)N1c1ccccc1 (stereo unspecified)	-49	i	-18	1	-2	-7	2	8
O=C(NC(c1ccccc1)c1cnccn1)C1CCN(CCOc2ccc(Cl)cc2Cl)CC1 (stereo unspecified)	-3	/	-2	/	/	1	0	/
Cc1ccc(-c2nc3c(c(=O)[nH]c(=O)n3Cc3ccccc3)n2C)s1	/	i	/	16	-16	/	/	0
CC(C)CC(C(=O)NC(C)(C)C)N(CC1CCCO1)C(=O)c1snc(C(N)=O)c1N (stereo unspecified)	10	i	/	3	4	2	4	-5
CCOCCCNC(=O)c1c(N)n(-c2ccc(S(N)(=O)=O)cc2)c2nc3ccccc3nc12	/	i	-10	-14	8	0	8	13
O=C(NCc1ccccc1)C1CCCN(S(=O)(=O)c2ccc(-n3cnnn3)cc2)C1 (stereo unspecified)	5	i	-8	1	8	0	-3	2
O=C(Oc1ccc2ccc(OC(=O)N3CCCCCC3)cc2c1)N1CCCCCC1	/	i	/	-4	/	-3	-25	-2
FC(F)(F)c1cc(-c2ccco2)nc(NCCc2ccccc2)n1	-103	i	-12	-2	7	-11	-8	-6
CN(Cc1nc(CCc2ccccc2)no1)Cc1cccs1	-5	i	8	-6	-9	2	-3	11

Five entries drawn at random from the list so far, as already listed:
SMILES	Env fusion inh	Rce1 inh	Yeast UUG start	eIF4H inh	CSC inhib	MT1-MMP act inh	MT1-MMP act inh RFP	PABP FP inh	others
Cc1ccc(-c2nc3c(c(=O)[nH]c(=O)n3Cc3ccccc3)n2C)s1	/	i	/	16	-16	/	/	0
CC(C)CC(C(=O)NC(C)(C)C)N(CC1CCCO1)C(=O)c1snc(C(N)=O)c1N (stereo unspecified)	10	i	/	3	4	2	4	-5
O=C(COC(=O)c1cccc(O)c1)NCc1ccc2c(c1)OCO2	-8	i	-9	4	-1	-4	-3	-3
O=C(O)CCCNS(=O)(=O)Cc1ccccc1	2	i	0	19	-8	2	7	-10
O=C(O)CN1C(=O)/C(=C\c2ccccc2OCc2ccc(Cl)cc2)SC1=S	3	i	/	4	10	1	1	24

The main list resumes; the two compounds before the break are reprinted first.
SMILES	Env fusion inh	Rce1 inh	Yeast UUG start	eIF4H inh	CSC inhib	MT1-MMP act inh	MT1-MMP act inh RFP	PABP FP inh	others
FC(F)(F)c1cc(-c2ccco2)nc(NCCc2ccccc2)n1	-103	i	-12	-2	7	-11	-8	-6
CN(Cc1nc(CCc2ccccc2)no1)Cc1cccs1	-5	i	8	-6	-9	2	-3	11
Nc1nc(COc2ccc(Cl)cc2)cs1	-27	i	/	-2	6	-3	-2	16
COCCCN(C(=O)C(C)Oc1ccc(Br)cc1)c1c(N)n(Cc2ccccc2)c(=O)[nH]c1=O (stereo unspecified)	-55	i	11	/	-2	-1	-2	/
O=C(CSc1c[nH]c2ccccc12)N1CCOCC1	-2	i	-1	-8	-15	-3	1	0
CCCOc1ccc(-c2c(C(=O)N/N=C(\C)c3ccco3)nnn2-c2nonc2N)cc1	1	i	-15	-4	3	4	1	-2
Cc1ccc2nc(N/C(N)=N/S(=O)(=O)c3ccc([N+](=O)[O-])cc3)nc(C)c2c1	-134	i	/	-4	-11	1	-12	2
O=C(NCC1CC1)NC(=O)c1c(F)cccc1Cl	-14	i	-29	4	-9	-3	-2	2
CCCOc1ccc(N2C(=O)CC(NCc3cccnc3)C2=O)cc1 (stereo unspecified)	11	i	/	9	-12	4	6	3
COc1ccc(C(=O)NC2CCN(CC(=O)NC3CCCCC3)CC2)cc1	-5	i	-6	1	-15	1	4	6
COc1ccc(-c2cc(-c3cccs3)nc(OC)c2C#N)cc1OC	-9	i	/	-12	40	-16	-5	-1
CCN1CCN(C(=O)c2c(-c3c(Cl)cccc3Cl)noc2C)CC1	3	i	6	-7	-1	-1	-2	3
COc1ccc(-n2nnc3c(SCC(=O)Nc4ccc5c(c4)OCCO5)ncnc32)cc1	/	/	/	-3	53	/	/	-15
C[C@H](CO)N1C[C@H](C)[C@@H](CN(C)Cc2ccc(-c3ccccc3)cc2)Oc2c(NS(=O)(=O)c3cn(C)cn3)cccc2C1=O	-18	/	3&-1	/	3	3	1	/
Cc1nn(CC(=O)Nc2ccc(C(=O)N3CCCCC3)cc2)c(=O)c2ccccc12	-2	i	-20	2	/	-1	4	8
Cc1cccc(-n2ncc3c2CCCC3NC(=O)CCN2CCCCO2)c1C (stereo unspecified)	/	i	-8	0	-9	0	-19	-11
Cc1cccc(NC(=S)N(CCN2CCOCC2)Cc2cc3cc4c(cc3[nH]c2=O)OCO4)c1	2	i	/	-12	-8	0	3	0
CN(C)c1ccc2cc(S(=O)(=O)O)cc(O)c2c1	15	/	-3	/	/	2	5	/
COc1ccc(C(=O)Cc2ccc(F)cc2)c(OC)c1	-15	i	-5	-10	/	-10	-5	-1
C/C(=N\NC(=S)NCCc1ccccc1)c1cccs1	/	i	/	4	3	-9	2	-4
C=C(C)C(=O)Nc1cccc(C2=NOC3(C2)C[C@H](C(N)=O)N(C(=O)CC#N)C3)c1 (stereo partly specified)	/	i	/	89*	4	/	/	29	eIF4H inh retest=59*;PABP FP inh retest=30
CCS(=O)(=O)C1=NN2C(=N)/C(=C\c3ccc(OS(=O)(=O)c4ccccc4)cc3)C(=O)N=C2S1	/	i	-21	-3	15	0	1	4
CC1(OC(=O)CCc2ccccc2)C(=O)C=C2C=C(c3ccc(C#N)cc3)N(CC3CC3)C=C2C1=O (stereo unspecified)	-4	i	-6	34	-1	-3	4	26
COc1ccccc1NC(=O)CSc1nnc(COc2ccc(Cl)cc2)n1Cc1ccco1	26	i	-12	-6	8	-4	-7	3
CCCOC(=O)c1c(NC(=O)C2C3C=CC(C3)C2C(=O)O)sc2c1CCC(C)C2 (stereo unspecified)	-7	i	/	3	0	2	2	3
COc1ccc(OC)c(NC(=O)C2CC(=O)N(c3ccccc3)C2)c1 (stereo unspecified)	/	i	-18	3	-10	14	7	5
Cc1cc(Nc2cccc(Cl)n2)n(-c2ccccc2)n1	-1	i	-14	-5	-4	-5	-7	-22
O=C(NCc1ccccc1)C(c1ccccc1)N(C(=O)c1csnn1)C1CCCC1 (stereo unspecified)	20	i	2	-14	/	-2	0	-1
CSc1ccc(S(=O)(=O)NCC(=O)OCC(=O)N(C)Cc2ccccc2)cc1[N+](=O)[O-]	-3	i	-6	/	35	1	1	/
CC(C)c1nccn1CCC(=O)O	/	i	/	-6	-5	8	3	6
O=C1c2ccccc2C(=O)N1c1ncn[nH]1	7	i	-19	-10	-1	2	6	1
Nc1ccccc1SCc1csc(-c2ccc(Cl)cc2)n1	-2	i	-9	-7	36	-2	-5	0
COc1cc2c3c(c1)C1(C(=O)N3C(C)(C)C=C2C)C(C#N)=C(N)Oc2cc(C)oc(=O)c21 (stereo unspecified)	/	i	1	-9	/	5	5	4
CCOC(=O)c1nn(-c2ccccc2F)c(C)c1C(C)=O	/	i	-9	8	-1	-4	-1	1
CC1(C)CC(NC(=O)c2ccccc2Cl)CC(C)(C)N1	/	i	-16	-16	-7	8	9	8

Assay outcomes: PubChem, several laboratories
